High-throughput results deposited in PubChem BioAssay by National Center for Advancing Translational Sciences (NCATS).
Resorufin fluor – resorufin region autofluorescence. Compound fluorescence, resorufin region 547/598 nm, buffer; stronger effect = higher value. max dye-equivalent concentration, M. actives 0.04% (n = 59,000); active = above 10 nM dye equivalent; inconclusive = 1 to 10 nM; inactive = 1 nM or less; a few of its hits are not listed in these tables; further: highest value over a series up to 38 µM
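Dye-equivalent concentration values derive from comparing each well's 547/598 nm fluorescence against resorufin standards included on every plate. Incubation was 15 min at room temperature in 100 mM Tris, pH 8.0.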
A488 fluor – compound fluoresces in the A488 spectral region. max dye equivalency, M. AID 591. compound autofluorescence, A488 spectral region, dye equivalency; stronger effect = higher value. actives 0.1% (n = 59,000); active = above 10 nM dye equivalent; inconclusive = 1 to 10 nM; inactive = 1 nM or less; about half of its hits are not listed in these tables;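 further: highest value over a series up to 38 µM; compound alone in buffer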
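Compounds pin-transferred into 100 mM Tris buffer, pH 8.0, incubated 15 min at room temperature, then imaged with 480 nm excitation/540 nm emission filters. Fluorescence converted to Alexa 488 dye-equivalent concentration via an on-plate six-point A488 standard curve.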
A647 autofl – A647 region autofluorescence; Compound fluorescence, A647 channel (570/671 nm), Tris buffer; max dye-equivalent concentration, M; 59,000 tested, under 10 active; AID 592; active means above 1 µM dye equivalent; inconclusive means 0.1 to 1 µM; inactive means 0.1 µM or less;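 further: values scaled relative to a standard on each plate; highest value over a series up to 38 µM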
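Each compound's intrinsic fluorescence at 570 nm excitation and 671 nm emission is measured across its concentration series in 100 mM Tris, pH 8.0, after 15 min at room temperature, and reported relative to an A647 curve.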
TSHR ag – TSH receptor (human) agonism | HEK293-CNG-TSHR cells (CNG channel as cAMP sensor), membrane potential dye, cAMP | P16473 | Potency, µM (doses to about 57.1 µM), inactives show top-dose activation, actives largely listed as activators | actives 0.48% (n = 73,000); active = well fitted activation curve of enough size with the parental cells flat; inconclusive = any curve in the parental cells; inactive = parental cells flat and receptor cells flat or falling; further: potency means the concentration at half of the fitted maximal effect; % of control where 0% means no effect; weak receptor curves with flat parental cells got no call and are not listed
Target sequence (P16473 whole entry, looked up): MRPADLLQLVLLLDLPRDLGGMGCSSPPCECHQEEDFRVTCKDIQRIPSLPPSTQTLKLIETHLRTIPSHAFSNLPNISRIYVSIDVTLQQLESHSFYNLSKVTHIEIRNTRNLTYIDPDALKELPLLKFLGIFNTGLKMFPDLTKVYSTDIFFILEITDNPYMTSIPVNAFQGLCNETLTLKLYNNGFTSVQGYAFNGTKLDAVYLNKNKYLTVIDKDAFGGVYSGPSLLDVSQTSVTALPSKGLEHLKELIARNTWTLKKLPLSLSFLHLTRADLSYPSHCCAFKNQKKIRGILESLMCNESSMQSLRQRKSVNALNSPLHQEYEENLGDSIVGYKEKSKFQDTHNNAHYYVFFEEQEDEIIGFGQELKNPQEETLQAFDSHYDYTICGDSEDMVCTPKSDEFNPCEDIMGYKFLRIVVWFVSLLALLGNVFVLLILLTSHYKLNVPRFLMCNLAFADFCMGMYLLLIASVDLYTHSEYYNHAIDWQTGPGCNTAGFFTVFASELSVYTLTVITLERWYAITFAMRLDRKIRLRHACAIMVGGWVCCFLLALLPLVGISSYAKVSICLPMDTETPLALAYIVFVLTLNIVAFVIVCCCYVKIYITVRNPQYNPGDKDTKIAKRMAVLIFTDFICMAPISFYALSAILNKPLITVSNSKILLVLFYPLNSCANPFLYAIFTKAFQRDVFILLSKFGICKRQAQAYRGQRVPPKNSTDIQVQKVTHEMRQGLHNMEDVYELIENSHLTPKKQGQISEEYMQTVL
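cAMP rise detected as CNG-channel membrane depolarization by fluorescent dye (emission 590 nm), 30 min after compound, following 60 min dye loading containing 100 uM RO 20-1724 at room temperature. Cells: TSHR/CNG HEK 293, with parental CNG HEK 293 as control.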
AID923 – qHTS Assay for Allosteric/Competitive Inhibitors of Caspase-1: Spectroscopic Profiling in AFC Spectral Region; AID 923, 2007; compound fluorescence, AFC spectral region (405/520 nm); almost no hit is shown here; actives 1.1% (n = 75,000); Potency, µM (top dose mostly 57.5 µM), inactives show at the top dose fluorescence increase, hits mostly activators; active means well fitted activation curve with a large enough effect; inconclusive means small, poorly fitted or top-dose-only effect;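 further: potency means the concentration at half of the fitted maximal effect; 0% is about no effect; scaled to a free AFC standard on each plate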
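Baseline compound fluorescence (AFC region, 405 nm ex/520 nm em) taken from the intercept of kinetic reads with 50 nM caspase-1 and 5 uM Ac-WEHD-AFC; normalized to an on-plate AFC standard curve; compounds titrated up to 57 uM.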
* hit, by the source's call; i = inactive; ? = inconclusive; . = no result given; [ ] = dose if it differs, or a comment. Not all compounds are listed, so the mix of outcomes need not match the whole.

Molecule | Resorufin fluor | A488 fluor | AID923 | A647 autofl | TSHR ag
COC(=O)C(NC(=O)c1ccco1)(Nc1ccc(Br)cn1)C(F)(F)F (stereo not given) | i | i | . | 1e-09 | .
Cc1ccc(Cn2nnc3c(=O)[nH]c(C4CCN(C(=O)Cc5cccs5)CC4)nc32)cc1 | i | i | 0.5% | 1e-09 | -9%
COc1ccc(CCNC(=O)Cn2cnc3c(cnn3-c3ccccc3Cl)c2=O)cc1OC | i | i | -0.2% | 1.2e-09 | -3%
O=C(COC(=O)COc1ccccc1)Nc1ccccc1OC(F)F | i | i | 0.5% | 1.7e-08 | 0%
Cc1cc(C)nc(SC2CCCCC2O)n1 (stereo not given) | i | i | 2.3% | 1.7e-08 | -2%
CCOC(=O)c1[nH]c2cc3c(cc2c1NC(=O)CN1CCC(C)CC1)OCO3 | i | i | . | 1e-09 | .
CC(=O)Nc1sc2c(c1C#N)CCCCC2 | i | i | 0.8% | 1.6e-09 | -7%
Clc1c(CSc2nc3ccccc3o2)nc2sccn12 | i | i | -1.3% | 5.4e-09 | ?
CCOC(=O)N/N=C1/C[C@@H](O)[C@@H](O)[C@@H]2[C@@H]3C(=O)N([C@@H](C)c4ccccc4)C(=O)[C@H]3CC[C@H]12 | . | . | 1.7%[11.5 µM] | . | 0%[11.4 µM]
CCCc1nnc(NC(=O)C2CCCO2)s1 (stereo not given) | i | i | 0.3% | 3.9e-08 | 0%
COc1ccc(OCc2nnc(SC(C)C(=O)Nc3nccs3)n2-c2ccccc2)cc1 (stereo not given) | i | i | -2.3% | 1e-09 | 5%
Cc1ccc(Nc2nc(N)nc(CSc3nccn3C)n2)cc1 | i | i | -0.3% | 2.1e-08 | -2%

4 compounds from above, sorted by the number in A647 autofl, ascending:
SMILES,A647 autofl
Cc1ccc(Cn2nnc3c(=O)[nH]c(C4CCN(C(=O)Cc5cccs5)CC4)nc32)cc1,1e-09
CC(=O)Nc1sc2c(c1C#N)CCCCC2,1.6e-09
O=C(COC(=O)COc1ccccc1)Nc1ccccc1OC(F)F,1.7e-08
Cc1ccc(Nc2nc(N)nc(CSc3nccn3C)n2)cc1,2.1e-08

(more compounds)
Molecule | Resorufin fluor | A488 fluor | AID923 | A647 autofl | TSHR ag
CC1CN(c2nc3c(c(=O)n(C)c(=O)n3C)n2Cc2c(F)cccc2Cl)CC(C)O1 (stereo not given) | i | i | 1.0% | 5.5e-09 | 24%
COc1ccccc1-c1nc(NC(C)=O)n[nH]1 | i | i | 1.2% | 5e-08 | 1%
Cc1nc(NCC2CCCO2)nc2c1C(=O)CC(C)(C)C2 (stereo not given) | i | i | -0.8% | 3e-08 | 1%
CS(=O)(=O)N(CC(=O)O)c1ccc(Oc2ccccc2)cc1 | i | i | 0.6% | 6.8e-09 | 7%
CCN(CC(=O)Nc1ccc2c(c1)CCC2)Cc1nc2ccccc2c(=O)[nH]1 | i | i | 0.9% | 3e-08 | ?
Cc1ccc(C(=O)NC2CCCCCC2)o1 | i | i | -3.1% | 1.2e-08 | -12%
O=C(CSc1nnc(-c2ccco2)o1)NC(=O)Cc1ccccc1 | i | i | 1.4% | 2.2e-08 | -1%
CCc1ccc(NC(=O)N(CCCN2CCOCC2)C(C)c2cc3cccc(OC)c3o2)cc1 (stereo not given) | i | i | 0.4% | 1e-09 | 15%
O=[N+]([O-])c1cccc(Cl)c1Cl | . | . | 4.8% | . | -3%
CCOC(=O)C1(c2ccccc2)NC(c2ccc(N(C)C)cc2)C2C(=O)N(C)C(=O)C21 (stereo not given) | i | i | 1.2% | 5.9e-08 | -5%
COC(=O)C(C(=O)Nc1cc(C)on1)C1CCCCCC1 (stereo not given) | i | i | -1.1% | 8.4e-09 | 17%
c1ccc2oc(SCc3nc4ccccc4s3)nc2c1 | i | i | 4.7% | 1e-09 | ?
Cc1nc2ccc(S(=O)(=O)N(C)CC(=O)N3CCc4ccccc43)cc2s1 | i | i | -0.6% | 3.1e-08 | ?
O=C(Cn1cnc2c(nnn2-c2cccc(Cl)c2)c1=O)N1CCOCC1 | . | . | 2.6% | . | -8%
O=C(NCc1ccco1)c1cnn2c(C(F)F)cc(-c3ccccc3)nc12 | i | i | -0.3% | 4.7e-09 | ?
CCOC(=O)N1CCC(NC(=O)CS(=O)Cc2nc(-c3ccc(OC)c(OC)c3)oc2C)CC1 (stereo not given) | i | i | -0.4% | 6.3e-09 | 1%
CCCCCC(=O)Nc1ccc(N2CCN(C(=O)c3ccccc3)CC2)cc1 | i | i | 0.1% | 4e-08 | -7%
Cc1cc(C)n2nc(C(=O)Oc3ccc4c(c3)OCO4)nc2n1 | i | i | -0.5% | 4.6e-08 | ?
c1ccc2c(c1)CCN(c1nc3cc4c(cc3s1)OCO4)C2 | i | i | 2.0% | 2.5e-08 | -27%
CC(C)CCNC(=O)CN(Cc1ccc2c(c1)OCO2)C(=O)Cn1nnc(-c2cccs2)n1 | i | i | 0.6% | 5.1e-08 | -1%
O=C(CSc1ccccc1C(=O)O)NCc1ccco1 | i | i | -2.1% | 1e-09 | -4%
CN1CCN(c2ccc(NC(=O)c3cccc(OCc4ccccc4)c3)cc2)CC1 | i | i | -0.7% | 3.8e-08 | -19%
C(=N\n1cnnc1)/c1ccccc1OCCOc1ccccc1 | . | . | 1.3% | . | 23%
CC(C)(Sc1cc(C(C)(C)C)c(O)c(C(C)(C)C)c1)Sc1cc(C(C)(C)C)c(O)c(C(C)(C)C)c1 | i | i | -0.1% | 3.9e-09 | -5%[25.6 µM]
CCOC(=O)C(C)(C)Sc1ncnc2nc[nH]c12 | i | i | -0.3% | 1e-09 | -1%
CCOC(=O)C1CCCN(c2nc3ccccc3nc2C(C#N)C(=O)OC(C)C)C1 (stereo not given) | i | 1.4e-08M* | . | 2.5e-08 | .
CCOc1cc(N2C(=O)CC3CS(=O)(=O)CC32)c(OCC)cc1NC(=O)c1ccccc1 (stereo not given) | i | i | 1.0% | 6.4e-09 | 10%
Cc1ccc(-c2[nH]nc3c2C(c2ccccc2OC(=O)N2CCOCC2)C(C#N)=C(N)O3)cc1 (stereo not given) | i | i | 1.6% | 2.9e-08 | 2%
CC(=O)c1ccc(NC(=O)CSc2nnc(Cc3cccn3C)n2-c2ccc(F)cc2)cc1 | . | . | -3.3% | . | -14%
Cc1c(C(=O)Nc2ccc(-n3cnnn3)cc2)oc2ccccc12 | i | i | -0.3% | 1.6e-09 | 5%
CCOc1cc(C2C3=C(CCCC3=O)N(C)C3=C2C(=O)CCC3)cc(Cl)c1O | i | i | 16% | 2.5e-08 | 10%
CS(=O)(=O)Nc1ccccc1Oc1ccccc1 | . | . | -0.9% | . | 1%[11.4 µM]
COc1ccc([C@@H]2CC(=O)c3c(O)cc(O[C@H]4O[C@@H](CO[C@H]5O[C@@H](C)[C@@H](O)[C@@H](O)[C@@H]5O)[C@@H](O)[C@@H](O)[C@@H]4O)cc3O2)cc1O | i | i | 4.3%[25.7 µM] | 4.4e-08 | -13%[25.6 µM]
CN(C)Cc1ccccc1-c1nccc(Nc2ccc(F)cc2)n1 | i | i | 4.5% | 1e-09 | 21%
COc1ccc(CCn2nnnc2C(c2ccc(C)cc2)N2CCN(C)CC2)cc1OC (stereo not given) | i | i | 9.7% | 1.4e-08 | 5%
COc1ccc(-n2c(Cn3c(=O)sc4ccccc43)nnc2SCC(N)=O)cc1 | . | . | -1.3% | . | -1%
O=C(CSc1nc(C2CCCCC2)n(-c2ccccc2)n1)NCCN1C(=O)CSC1=O | i | i | -1.1% | 2.6e-08 | -1%
CCOC(=O)C1CCCN(c2ncnc3c2cnn3-c2cccc(C)c2)C1 (stereo not given) | i | i | 0.0% | 2.1e-09 | 24%
O=C(O)c1oc2ccccc2c1CN1CCN(c2ccccc2)CC1 | i | i | -1.6% | 9.1e-09 | -1%
CCOc1ccccc1-n1c(SCC(N)=O)nnc1-c1ccco1 | i | i | 2.2% | 5.4e-08 | 2%
CNC(=O)c1ccccc1NC(=O)c1c(O)c2c([nH]c1=O)CCCC2 | i | i | -0.8% | 7.2e-09 | -16%
CCN(Cc1ccncc1)C(=O)c1cccs1 | . | . | -0.8% | . | 1%[11.4 µM]
C/C(Cl)=C\Cn1c(N2CCCC2)nc2c1c(=O)[nH]c(=O)n2C | i | i | -0.8% | 4.5e-08 | 1%
COc1ccc(NC(C)=O)cc1NC(=O)CN1CCN(c2ccccn2)CC1 | . | . | 0.6% | . | 9%
c1coc(-c2nc(-c3ccncc3)no2)c1 | i | i | -1.0% | 1.7e-08 | ?
CCn1c(CNC(=O)C(C)(C)C)nc2ccccc21 | . | . | 1.2% | . | 2%
CC(C)CCNC(=O)C(c1ccco1)N(Cc1cccs1)C(=O)Cn1nnc2ccccc21 (stereo not given) | i | i | -0.4% | 1.2e-08 | ?
CC1c2[nH]c3ccccc3c2CCN1C(=O)Nc1ccccc1 (stereo not given) | i | i | 1.5% | 1e-09 | -10%
O=C(O)CCSc1nc2ccccc2c(=O)[nH]1 | i | i | 1.9% | 1.4e-09 | 4%
O=C(CSc1nnc(COc2ccc(F)cc2)o1)N1c2ccccc2CCc2ccccc21 | i | i | -0.8% | 3.1e-08 | .
Cc1cnc(NC(=O)CCCSc2nc3ccccc3s2)s1 | i | i | -1.5% | 7.6e-09 | 1%
CCOC(=O)C1CCN(C(=O)c2oc3ccc(S(=O)(=O)N4CC(C)CC(C)C4)cc3c2C)CC1 (stereo not given) | i | i | -0.5% | 1.9e-08 | ?
O=C1CCCN1CCCNc1ncnc2c1[nH]c1ccccc12 | i | i | 0.2% | 1e-08 | 21%
Nc1ccc2c(c1)ncn2CCCn1cnc2cc(N)ccc21 | i | i | 1.8% | 2.8e-08 | 1%
CCOC(=O)CSc1nc2ccccc2c(=O)[nH]1 | . | . | -0.8% | . | -4%
O=C(c1cc(C(F)(F)F)cc(C(F)(F)F)c1)N1CCC2(CC1)CCN(c1ncccn1)CC2 | i | i | 5.7% | 1e-09 | -4%
Cc1ccc(S(=O)(=O)N[C@H](C(=O)O)C(C)C)cc1 | i | i | 1.9%[11.5 µM] | 1.8e-09 | 0%[11.4 µM]
Cn1c(=O)[nH]c(=O)c2c1ncn2CCN1CCOCC1 | i | i | -1.9% | 4.1e-08 | -1%
CCCn1c(SCC(=O)Nc2sc(C)c(C)c2C(=O)OC)nc2c1c(=O)n(C)c(=O)n2C | i | i | 0.9% | 1.2e-09 | ?
Cn1c(=O)c2c(nc(N3CCOCC3)n2Cc2c(F)cccc2Cl)n(C)c1=O | i | i | 0.5% | 1e-09 | 9%

Next part:
Molecule | Resorufin fluor | A488 fluor | AID923 | A647 autofl | TSHR ag
CC(=O)c1cccc(NC(=O)CC2SC(N3CCCCC3)=NC2=O)c1 (stereo not given) | i | i | 1.4% | 1e-09 | -3%
Cc1ccc2oc(-c3ccco3)nc2c1 | i | i | 2.0% | 1.7e-09 | -1%
CCOC(=O)CSc1nnc(CNC(=O)c2ccc(S(=O)(=O)N3CCCCC3)cc2)n1C | i | i | -0.6% | 6.2e-09 | -4%
COc1ccc(CN/C=C2\CCCCC2=O)cc1 | i | i | 0.9% | 2.9e-08 | 12%
O=C(CCS(=O)(=O)Cc1ccccc1)N1CCN(Cc2ccccc2)CC1 | i | i | 0.0% | 5.5e-08 | 0%
Cc1ccccc1-c1nccc(NCc2cccs2)n1 | i | i | 2.8% | 1e-09 | ?
CC12CCC(C(=O)NCc3ccccn3)(OC1=O)C2(C)C (stereo not given) | i | i | 0.4% | 1e-09 | -9%
Fc1ccc(C(c2nnnn2Cc2ccco2)N2CCN(C3CCCCC3)CC2)cc1 (stereo not given) | i | i | 0.6% | 3.9e-09 | ?
COCCCN(C(=O)Nc1ccccc1)C(C)c1ccncc1 (stereo not given) | . | . | 2.7% | . | 4%
